Source: PubChem
Prx2 Sm inh: blocks S. mansoni peroxiredoxin 2 enzymatic activity; S. mansoni Prx2 activity coupled to TGR/GSH (TGR is thioredoxin glutathione reductase), NADPH fluorescence loss, qHTS; some inactives read as strong as hits; Potency, µM; 65,000 compounds, 0.07% hits; AID 448; active means full or partial inhibition curve with a strong effect at the top dose; inconclusive means weaker partial or single-point curve; inactive means no accepted curve; further: series up to 57 µM; many of its hits are not listed in these tables
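Prx2 inhibition was measured as reduced NADPH consumption when electrons flowed from NADPH through TGR and glutathione to Prx2 and H2O2. Plates were read kinetically over 8 min; enzyme reagents were held at 4 deg C during dispensing.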
Anthrax LT inh: blocks cellular internalization of anthrax lethal toxin | Cells, anthrax lethal toxin internalization, FRET ratio (460/530) | Potency, µM (titrated, usually from 40 µM), for the others: at the top dose activity change, negative = inhibition, usual class: inhibitors | 70,000 compounds, 0.67% hits; active = well fitted falling ratio curve with the 530 nm signal flat; inconclusive = other ratio curves, or a change in one channel alone; inactive = flat curves in the ratio and both channels; the % refers to the ratio; further: on the % scale 0 is the no-effect control and ±100 the full control effect; nearly all actives have a fitted effect of over 50% in size; tested in ME-180 cells; beta-lactamase reporter
An asterisk follows results filed as active; ? = inconclusive; · = no result given; [ ] = dose if it differs, or a comment. Potency means the concentration at half of the fitted maximal effect. Some of the compounds tested; the hit share may differ from the screen's.

Results follow in this order: Prx2 Sm inh, Anthrax LT inh
1. CCOc1ccccc1C(=O)NC1CC2CCCC(C1)N2C1CC1 (centres undefined)
  >57, 3%
2. O=S(=O)(O)c1cc(O)ccc1O
  >57, -10%[3.58 µM]
3. CCn1c(CCNC(=O)c2ccc(Cl)cc2)nnc1SCC(=O)NC1CCCC1
  >57, -10%
4. CCC(=O)c1ccc(OCC(O)Cn2cnc3ccccc32)cc1 (centres undefined)
  >57, -6%
5. COC(=O)c1ccccc1NC(NC(=O)c1ccco1)C(=O)c1ccc(C)cc1 (centres undefined)
  >57, -11%
6. Clc1ccc(-c2ccc(-c3nn4c(-c5ccco5)nnc4s3)o2)cc1
  >57, -27%
7. CCOC(=O)CN(C(=O)CSc1nnc(-c2ccncc2)n1CCCN(C)C)c1ccccc1
  >57, ?
8. CC(=O)NC(C)c1nc2ccccc2n1C(C)C (centres undefined)
  >57, 3%
9. O=C1OC2(CCCCC2)OC(=O)C1=CNc1nccs1
  >57, -15%
10. O=C(CN1CCN(Cc2ccc3c(c2)OCO3)CC1)Nc1ccc2c(c1)OCCO2
  >57, -13%
11. c1csc(-c2nc3ccccc3[nH]2)c1
  >57, 9%
12. CSc1nnc(-c2cnccn2)n1C
  >57, 7%
13. CCCC(C(=O)NCc1ccco1)N(C(=O)CNS(=O)(=O)c1ccccc1)c1ccccc1OC (centres undefined)
  >57, -4%
14. NC(=O)c1ccc2c(c1)OCCO2
  >57, 8%
15. CCOC(=O)N1CCC(NCCNC(=O)c2ccccc2)CC1
  >57, -14%
16. COc1ccc2nc3oc(C(=O)N4CCN(c5cccc(Cl)c5)CC4)cc3cc2c1
  >57, 8%
17. Cc1ccc(S(=O)(=O)N(CCO)Cc2cc3ccc(C)c(C)c3[nH]c2=O)cc1
  ?, -8%
18. Nc1nonc1-c1noc(CCCN2C(=O)c3ccccc3C2=O)n1
  >57, 0%
19. COc1ccc(-c2nc(N3CCCC3)[nH]c(=O)c2C#N)cc1
  >57, ?
20. Cc1c(C(=O)Nc2ccccc2N2CCOCC2)sc2nc3n(c(=O)c12)CCC3
  >57, -20%

An excerpt of these results, with tabs:
#	Compound	Prx2 Sm inh	Anthrax LT inh
3	CCn1c(CCNC(=O)c2ccc(Cl)cc2)nnc1SCC(=O)NC1CCCC1	>57	-10%
4	CCC(=O)c1ccc(OCC(O)Cn2cnc3ccccc32)cc1 (centres undefined)	>57	-6%

Full records, looked up by structure. Order of values: Prx2 Sm inh, Anthrax LT inh
Shown for Nc1nonc1-c1noc(CCCN2C(=O)c3ccccc3C2=O)n1 = >57, 0%
Shown for CCC(=O)c1ccc(OCC(O)Cn2cnc3ccccc32)cc1 (centres undefined) = >57, -6%

Carrying on:
Results follow in this order: Prx2 Sm inh, Anthrax LT inh
21. CCCCc1ccc(Nc2nc(CCC)cc(=O)[nH]2)cc1
  >57, ?
22. CCCn1c(SCC(=O)Nc2c(CC)cccc2CC)nnc1C(C)C
  >57, -12%
23. CCOc1ccc(N(C(C)C(=O)Nc2ccc(OC)cc2)S(C)(=O)=O)cc1 (centres undefined)
  ·, 5%
24. COC(=O)c1c(C)[nH]c(C)c1-c1ccccc1Cl
  >57, -10%
25. CN(C)C=C1C(=O)N(C2CCCCC2)C(=O)N(C2CCCCC2)C1=O
  >57, -5%
26. CCc1ccc(C2C3=C(CC(C)(C)CC3=O)Nc3c2c(=O)[nH]c2nc(C)nn32)cc1 (centres undefined)
  >57, ?
27. CCc1c(C)c2ccc(OCC(N)=O)cc2oc1=O
  >57, 11%
28. COc1cc2c(cc1OC)C(C(=O)O)C(c1cc(Br)c(O)c(OC)c1)N(C)C2=O (centres undefined)
  >57, 5%
29. COc1ccc(-c2nc(CSCC(=O)N3CCN(c4cccc(C)c4)C(C)C3)c(C)o2)cc1OC (centres undefined)
  >57, 10µM*
30. CCOc1ccc(CN2CCN(c3cc(C)nc4c5c(C)cc(C)nc5nn34)CC2)cc1
  >57, 25%
31. O=C(O)c1cc(-c2ccccc2)n(-c2ccccc2C(=O)O)n1
  >57, -2%
32. COc1ccc(OC)c(NS(=O)(=O)c2ccc(SC)cc2)c1
  >57, -14%
33. CC(C)(C)n1nnnc1CN1C2CCC1CC(NC(=O)Nc1ccccc1)C2 (centres undefined)
  >57, 10%
34. CCOC(=O)c1[nH]c(=O)[nH]c1CSc1nc(C)cc(C)n1
  ·, -19%
35. COC(=O)C[C@@H]1O[C@H]1[C@H](C)[C@@H](OC)C(C)C
  ·, -14%[8 µM]
36. CN1CC(=O)N(C)c2nc(Br)n(C)c2C1=O
  >57, ·
37. CCn1cc(Br)c(C(=O)Nc2cccc(SC)c2)n1
  >57, 3%
38. COCCCNC(=O)c1oc2ccc(S(=O)(=O)N(C)C3CCCCC3)cc2c1C
  >57, ?
39. Cc1cccc(C(=O)Nc2ccc(CC(=O)O)cc2)c1
  >57, 6%
40. O=C1c2ccccc2C(=O)N1c1ccc(Cc2ccc(N3C(=O)c4ccccc4C3=O)cc2)cc1
  >57, ?
41. C[C@@]1(CO)[C@H](O)CC[C@]2(C)[C@@H]1CC[C@H]1C[C@H]3C[C@]12CC[C@]3(O)COC(=O)CN
  >57, 15%[8 µM]
42. Cc1noc(C)c1C(=O)N1CCC2(CC1)CN(Cc1cc(C(F)(F)F)cc(C(F)(F)F)c1)C2
  >57, ?
43. CN(C)Cc1cc(Cl)c(O)c(CN(C)C)c1
  >57, -9%[8 µM]
44. CCOC(=O)c1c(C)[nH]c(C(=O)OCc2c(C)noc2C)c1C
  >57, -4%
45. CCN(C(=O)N(CC)c1ccccc1)c1ccccc1
  ·, -2%
46. O=C(/C=C/N1CCOCC1)c1cc2ccccc2o1
  ·, 0%
47. COc1cccc(-n2c(C)c(C(C)=O)c(C(C)=O)c2C)c1
  >57, ?
48. CCOC(=O)CNc1nc(-c2ccncc2)nc2ccccc12
  >57, 26%
49. COc1cc(NC(=O)Cc2ccccc2)ccc1NC(=O)c1ccco1
  ·, -14%
50. Cc1cc(N2C(=O)C3CCCN3C2c2sccc2C)no1 (centres undefined)
  >57, -2%
51. Nc1nnc(Cc2ccc(Cl)cc2)s1
  >57, 3%
52. CC[C@@](N)(C(=O)O)c1ccc(C(=O)O)cc1
  >57, 0%
53. O=S1(=O)CCC(NS(=O)(=O)c2cccc3cccnc23)C1 (centres undefined)
  >57, ?
54. O=C(NCC1CCCO1)c1ccc2c(=O)n(CCc3ccccc3)c(=O)[nH]c2c1 (centres undefined)
  >57, 1%
55. N=c1c(S(=O)(=O)c2ccccc2)cc2c(=O)n3ccccc3nc2n1CC1CCCO1 (centres undefined)
  >57, 9%
56. CC(=O)c1nnn(-c2nc(N)nc(N(c3ccccc3)c3ccccc3)n2)c1C
  >57, ?
57. O=C(c1cc(-c2ccccn2)nc2c(Cl)cccc12)N1CCN(C(=O)C2CCCO2)CC1 (centres undefined)
  >57, ?
58. O=C(Nc1nc2c(s1)CCCC2)c1cccs1
  >57, -11%
59. O=C(CCNc1ccc(F)cc1)c1ccco1
  >57, 4%
60. CS(=O)(=O)Nc1cccc(-c2cncnc2NCc2cccs2)c1
  >57, -18%
61. CCc1nc(SCC(=O)Nc2c(C)n(C)n(-c3ccccc3)c2=O)n[nH]1
  >57, -3%
62. CCn1c(CCn2ccnc2C)n[nH]c1=S
  >57, -9%
63. Cc1oc(-c2cccs2)nc1CS(=O)CC(=O)NC1CCCCCC1 (centres undefined)
  >57, 6%
64. C=C(C)CSc1nc2nc(C)cc(C)n2n1
  >57, 0%
65. COc1ccccc1C1N(c2ccc(Cl)cc2)C(=O)C2CCCN21 (centres undefined)
  >57, -6%
66. CC(=O)c1cccc(OCCN2C(=O)NC(C)(C)C2=O)c1
  >57, -5%
67. CC1CCCN(S(=O)(=O)c2ccc(NC(=O)Cn3nnc(-c4ccccc4F)n3)cc2)C1 (centres undefined)
  >57, -26%
68. Cc1nn(CC(=O)Nc2ccc3c(c2)nc(CN2CCCCC2)n3C)c(=O)c2ccccc12
  >57, -5%
69. COC(=O)C1=C(N)Oc2cc(C)n(Cc3cccnc3)c(=O)c2C1c1cc(OC)ccc1OC (centres undefined)
  >57, ?
70. Cc1cccc(NC(=O)Cn2c(=O)n(Cc3ccco3)c(=N)c3c4c(sc32)COC(C)(C)C4)c1
  >57, 11%
71. COc1ccc(-c2nc(C)c(C(C)=O)n2O)cc1OC
  ·, -7%
72. COc1ncc2nc(-c3ccccc3)c(=O)n(CCC#N)c2n1
  >57, 10%
73. COC(=O)N1CCC[C@@]2(CCN(C(=O)Nc3cccc(C#N)c3)C2)C1
  >11, -5%
74. Cc1cccc(OCCn2c(=O)n(C)c3ccccc32)c1
  >57, -4%
75. O=C(CN1CCN(S(=O)(=O)c2ccc(Br)cc2)CC1)Nc1ccc(F)cc1F
  >57, -1%
76. COc1ccc(C2C(C#N)=C(N)OC(C(C)(C)C)=C2C#N)cc1OC (centres undefined)
  >57, -5%
77. COCCN(CCOC)S(=O)(=O)c1ccc(C(=O)Nc2nc(C)c(C(C)=O)s2)cc1
  >57, 11%
78. CCn1ncc(Br)c1C(=O)Nc1sc2c(c1C(N)=O)CCC2
  >57, 5%
79. COc1ccc(Cn2nnnc2CN2CCC(c3nc4ccccc4s3)CC2)cc1
  >57, -29%
80. CCCn1c(SCC(=O)Nc2nnc(CC)s2)nnc1-c1ccco1
  >57, -1%

New compounds follow.
Results follow in this order: Prx2 Sm inh, Anthrax LT inh
81. CCOC(=O)NCC(C)(C)CNC(=O)OCC
  >57, 9%
82. CN(CCNC(=O)c1cc2c(=O)n(C)c3ccccc3c2n1C)Cc1ccccc1
  >57, 3.2µM*
83. C=CCOc1ccc(C2c3c(oc4ccccc4c3=O)C(=O)N2c2ccccn2)cc1OCC (centres undefined)
  >57, -4%
84. COc1cc(NC(=O)c2ccc(Cl)cc2)c(OC)cc1NC(=O)CN1CCOCC1
  >57, 13µM*
85. CCOC(=O)C1=C(Cn2cnc3ccccc32)NC(=O)NC1c1cc(C)ccc1C (centres undefined)
  >57, -9%
86. CNc1nc(C)nc(-c2ccccc2O)n1
  >57, 4%
87. COc1ccc(CN(Cc2ccccn2)S(=O)(=O)c2ccc(-n3cnnn3)c(OC)c2)cc1
  >57, 11%
88. CCSc1nc2c(c(=O)n(C)c(=O)n2C)n1Cc1ccc(Cl)cc1
  >57, -17%
89. CN1/C(=C/C=N/n2cnnc2)C(C)(C)c2ccccc21
  >57, -6%
90. COc1cc(-c2c(C#N)c(N)nc3c2c(C)nn3-c2ccc(C)c(C)c2)cc(OC)c1OC
  ·, ?
91. COc1ccc(-n2c(=O)c(CCc3ccccc3)nc3cnc(OC)nc32)cc1
  >57, -27%
92. Cc1cc(C)nc(Sc2ccc3nnc(C(F)(F)C(F)(F)C(F)(F)F)n3n2)n1
  >57, -4%
93. O=C(Nc1ccc2c(c1)CCC2)c1cnn2c1NC(c1ccco1)CC2C(F)(F)F (centres undefined)
  >57, ?
94. CC1CCC(NC(=O)c2cc3c(s2)CS(=O)(=O)C3)CC1 (centres undefined)
  >57, 3%
95. O=C(CSc1ncnc2c1oc1ccccc12)Nc1cccc(Cl)c1
  >57, -3%
96. N#Cc1ccc(CSc2nnc(-c3cccc(S(=O)(=O)N4CCCCC4)c3)o2)cc1
  >57, -6%
97. O=C(O)c1ccc2c(c1C(=O)O)C(=O)OC2(c1ccc(O)cc1)c1ccc(O)cc1
  >57, -5%[8 µM]
98. O=c1c2ccccc2nnn1CSc1nnc(-c2cccc(S(=O)(=O)N3CCCCC3)c2)o1
  >57, 5%
99. CC(C)N(C(=O)N1CCC(c2nc(-c3ccncc3)no2)CC1)C(C)C
  >57, -18%
100. CCC(=O)N[C@@H]1CCc2cccc(OC)c2C1
  >57, -18%
101. Cn1nc(OCCOc2ccccc2)ccc1=O
  ·, -3%
102. CCN=C1SC(CC(=O)NC(N)=O)C(=O)N1CC (centres undefined)
  >57, -8%
103. Cc1ccc(S(=O)(=O)Nc2ccc(C(=O)Nc3cc(C)on3)cc2)cc1
  >57, -8%
104. Cc1cc(C)n(-c2ccc(Cl)c(C(=O)O)n2)n1
  >57, 6%
105. CCc1ccc(NC(=O)CC2NCCNC2=O)cc1 (centres undefined)
  >57, ?
106. COc1ccc(Cn2c(=O)[nH]c3cc(C(=O)NCCCN4CCCC4)ccc3c2=O)cc1
  >57, -17%
107. COc1ccc(-n2ncc3c(N4CCCc5ccccc54)ncnc32)cc1
  >57, ?
108. O=C(N1CCOCC1)C12CC3CC(C1)CC(C(=O)N1CCOCC1)(C3)C2
  >57, 23%
109. Nc1nc(-c2ccc3ccccc3c2)cc(-c2cc(-c3ccc4ccccc4c3)nc(N)n2)n1
  >57, -3%[8 µM]

5 entries from above, screen by screen.
105. CCc1ccc(NC(=O)CC2NCCNC2=O)cc1 (centres undefined)
101. Cn1nc(OCCOc2ccccc2)ccc1=O
103. Cc1ccc(S(=O)(=O)Nc2ccc(C(=O)Nc3cc(C)on3)cc2)cc1
107. COc1ccc(-n2ncc3c(N4CCCc5ccccc54)ncnc32)cc1
104. Cc1cc(C)n(-c2ccc(Cl)c(C(=O)O)n2)n1
Screen / compound no.	105	101	103	107	104
Prx2 Sm inh	>57	·	>57	>57	>57
Anthrax LT inh	?	-3%	-8%	?	6%
